# Assay outcomes deposited in PubChem BioAssay by ICCB-Longwood Screening Facility, Harvard Medical School.
# Sa growth inh: blocks Staphylococcus aureus growth; AID 720641; 170,000 compounds, 0.53% hits; S. aureus RN4220 growth, OD600, 20 h, 42 °C; active compounds read low; relative growth, % (test concentration not listed);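 active = growth at 42 °C up to 50% and 20 or more points under that at 30 °C, or under 10% at both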;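 also: 300 nL library stock went into each well; scaled to the means of positive and negative controls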
# GIV-Gai inh: blocks GIV peptide binding to rat Galpha-i3. Galpha-i3/FITC-GIV peptide fluorescence polarization, 90 min; active compounds read low; scaled: aluminum fluoride 0%, vehicle 100%. 210,000 compounds, 0.42% hits. percent of control (FP), % (no concentration beside the values). P08753;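 active = replicate mean at 85% of control or lower, very high polarization wells dropped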;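 also: wells of about 15 µL received 100 nL stock; the first replicate is given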
# Target sequence (P08753 whole entry, looked up): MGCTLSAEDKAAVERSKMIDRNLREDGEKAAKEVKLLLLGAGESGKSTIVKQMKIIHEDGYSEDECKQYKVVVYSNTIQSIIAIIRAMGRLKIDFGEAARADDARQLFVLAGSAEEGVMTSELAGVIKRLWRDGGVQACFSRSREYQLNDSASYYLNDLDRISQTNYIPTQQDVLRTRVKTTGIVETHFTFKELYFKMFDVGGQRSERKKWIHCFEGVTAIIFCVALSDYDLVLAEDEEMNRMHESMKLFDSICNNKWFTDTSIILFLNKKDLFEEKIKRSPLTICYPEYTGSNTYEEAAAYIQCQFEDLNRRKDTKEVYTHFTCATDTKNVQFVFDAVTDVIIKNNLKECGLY
# HCMV NEC inh: inhibitors of HCMV UL50-UL53 nuclear egress complex interaction; inhibition, % (test concentration not listed); HTRF UL50-UL53 interaction, normalized percent inhibition; AID 1918969; 190,000 compounds, 0.15% hits;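 active = both replicates at 50% or more, plus weaker picks with an unusually low signal ratio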;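 also: stock transfer was 100 nL into about 20 µL; 0% = negative control wells and 100% = wells with untagged competitor protein; inactives centre near -12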
# Sa growth inh second temp: recorded beside Sa growth inh, whose call it bears; relative growth, %; measured here: growth at 30 °C;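 optical density after 20 h as mean of two plates; 100% = untreated growth and lower means inhibition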
# The depositor's hits bear a star; . = not tested or not shown; & = joins results of further samples. Not a hit list. Share with any hit: about 0.82%.
SMILES,Sa growth inh,Sa growth inh second temp,GIV-Gai inh,HCMV NEC inh
CCOc1cccc2cc(S(=O)(=O)c3ccccc3F)c(=O)oc12,103,89,100,-24
Cc1ccc(CNC(=O)C2CCN(C(=O)N3CC(C)Oc4ccc(Cl)cc43)CC2)cc1 (centres undefined),107,101,106,1
Cc1ccccc1NC(=O)Cn1c(=O)oc2cc(Br)ccc21,110,98,101,.
CC(C)(C)C(=O)NC1CCN(CC(=O)Nc2ccccc2)CC1,87,91,97,-11
Cc1ccc(C)c(N2CCN(c3ccc4cc(S(=O)(=O)N5CCC(C)CC5)ccc4n3)CC2)c1,100,88,104,.
O=C(Nc1cc2c(cc1C(=O)c1ccccc1Br)OCCO2)c1ccccc1,106,91,103,-26
CCCNC(=O)Nc1cccc(-c2noc(-c3ccc(Br)cc3)n2)c1,.,.,105,15
CC1(C)CC(CC(=O)O)(c2ccc(F)cc2)CCO1 (centres undefined),103,95,104,.
O=C(c1cnc2ccc(F)cc2c1Nc1ccc(Br)cc1)N1CCCCC1,.,.,97,-27
O=C1SCCC1NS(=O)(=O)c1ccccc1 (centres undefined),91,84,95,.
C=CCSc1nnc(NC(=O)Cc2coc3c(C)c(C)ccc23)s1,103,93,109,7
COc1ccccc1N1CCN(Cc2cccc3ccccc23)CC1,91,85,102,-16
O=C1CC(c2cccc([N+](=O)[O-])c2)CC2=C1C(c1ccco1)N(C(=O)c1ccccc1)c1ccccc1N2 (centres undefined),.,.,102,-23
c1ccc2oc(-c3nn4c(Cn5nnc6ccccc65)nnc4s3)cc2c1,99,84,99,-18
O=C(CSc1nccn1-c1cccc(Cl)c1)Nc1cccc2ccccc12,96,91,101,.
CCC(=O)Nc1nc(-c2ccc3c(c2)NC(=O)CO3)cs1,.,.,92,-14
O=c1[nH]c2cc(Br)ccc2n2cccc12,109,90,105,-15
NC(=O)CSc1nc2ccccc2s1,86,89,96,.
O=S(=O)(Nc1ccc(Cn2cnc(-c3nc(-c4ccc(F)cc4)no3)c2)cc1)c1cccc(F)c1,.,.,107,-1
CSc1nc(COc2ccc(C(C)(C)C)cc2)nc(-n2cccc2)c1C#N,96,98,106,-11
COc1ccc(CNC(=O)C(C)On2nnc3ccccc32)cc1 (centres undefined),82,94,.,-23
CCOc1cc(C(=O)NCc2ccc3[nH]c(C)cc3c2)cc(OCC)c1OCC,93,93,101,.
COc1ccc(-c2n[nH]c(=O)[nH]2)cc1,102,91,106,-14
CCc1ccc(-c2n[nH]c(=O)c3c2CCCC3)cc1S(=O)(=O)N1CCN(c2ccccc2F)CC1,.,.,106,0
Cn1cc(-c2cc3n(n2)CCCN3C(=O)CCC(=O)NCC2CCCO2)c2ccccc21 (centres undefined),.,.,104,-3
CC(C)c1cccc(OCCn2c(-c3ccc(Cl)cc3)nc3ccccc3c2=O)c1,95,98,100,9
O=C(O)CSc1ccc2c3c(cccc13)CC2,92,84,.,-39
Cc1ccc(C)c(N2CCN(C(=O)C(C)n3nc(C)c4sc5ccccc5c4c3=O)CC2)c1 (centres undefined),85,89,105,14
CSc1ccc(S(=O)(=O)N2CCOCC2)cc1,105,103,100,8
O=C(NC1CCCCC1)C(c1ccco1)N(Cc1ccccc1)C(=O)Cn1nnc2ccccc21 (centres undefined),100,98,98,-18
CSc1cccc(NC(=O)c2noc3c2CSc2ccccc2-3)c1,98,89,103,.
C/C(N)=C(/C#N)C(=O)CSc1nnc(-c2ccccc2)o1,89,87,.,-16
Cc1ccccc1N1C(=O)c2cc(S(N)(=O)=O)c(Cl)cc2NC1C (centres undefined),101,96,102,0&-4&-22&-13
Cc1ccc(C2CC(C(F)(F)F)n3ncc(C(=O)Nc4cc(Sc5ccc(Br)cc5)cc([N+](=O)[O-])c4)c3N2)cc1 (centres undefined),.,.,94,-13
FC(F)(F)c1cccnc1N1CCNC1=S,80,88,102,11
O=C(Nc1ccc(Br)cc1)c1ccc2nsnc2c1,100,95,99,.

# Fetched by compound from the list above, 7 records:
SMILES,Sa growth inh,Sa growth inh second temp,GIV-Gai inh,HCMV NEC inh
O=C1SCCC1NS(=O)(=O)c1ccccc1 (centres undefined),91,84,95,.
CCC(=O)Nc1nc(-c2ccc3c(c2)NC(=O)CO3)cs1,.,.,92,-14
CSc1cccc(NC(=O)c2noc3c2CSc2ccccc2-3)c1,98,89,103,.
Cc1ccc(C)c(N2CCN(c3ccc4cc(S(=O)(=O)N5CCC(C)CC5)ccc4n3)CC2)c1,100,88,104,.
O=C(Nc1ccc(Br)cc1)c1ccc2nsnc2c1,100,95,99,.
CCCNC(=O)Nc1cccc(-c2noc(-c3ccc(Br)cc3)n2)c1,.,.,105,15
Cc1ccccc1N1C(=O)c2cc(S(N)(=O)=O)c(Cl)cc2NC1C (centres undefined),101,96,102,0&-4&-22&-13

# The list continues.
SMILES,Sa growth inh,Sa growth inh second temp,GIV-Gai inh,HCMV NEC inh
CSCCC(NS(=O)(=O)c1ccc2c(c1)oc(=O)n2C)C(=O)Nc1ccc(F)c(Cl)c1 (centres undefined),87,70,107,.
O=S(=O)(c1ccc(-c2cc(C(F)(F)F)on2)s1)N1CCOCC1,110,93,100,7
S=c1nc[nH]c2ccsc12,77,90,.,-12
COC(=O)CSc1nc2ccccc2[nH]1,88,86,100,-43
CCCCC(=O)Nc1ccccc1-c1nc(-c2ccccc2)no1,.,.,111,-16
CC1SC(=Nc2ccc(C(=O)O)cc2)NC1=O (centres undefined),96,95,96,-8
c1ccc(-c2cn[nH]c2N2CCOCC2)nc1,.,.,104,-15
CCc1cccc(-n2c(C)nc3c(cnn3-c3ccc(C)c(C)c3)c2=O)c1,105,98,106,5
Fc1ccc(N2CCN(Cc3cccn3-c3nnc(N4CCN(C5CCCCC5)CC4)s3)CC2)cc1,113,102,105,.
CC1CC(=O)C2=C(C1)Nc1ccccc1NC2c1ccccc1 (centres undefined),86,103,106,-30
COc1cc2sc(C)nc2c2ccccc12,96,69,105,.
c1ccc(-c2noc3c2CNCC3)cc1,95,96,103,-10
Cc1cccc(CCNS(=O)(=O)c2cc3c(cc2C)NC(=O)CO3)c1,83,88,98,-4
Cc1ccc(NS(=O)(=O)c2ccc3c4c(cccc24)C(=O)N3)c(C)c1,91,84,99,-62
CC(=O)N1N=C(c2c(-c3ccccc3)c3cc(Br)ccc3[nH]c2=O)CC1c1ccc([N+](=O)[O-])cc1 (centres undefined),.,.,100,-4
O=S(=O)(NCCc1ccccc1)c1ccccc1,90,114,.,-6
COc1ccc(OC)c(NS(=O)(=O)c2ccc(NC(=O)c3ccco3)cc2)c1,116,98,104,-14
COc1ccc(C/C(N)=N/O)cc1OC,109,97,98,-15
Cc1ccc2[nH]c(=O)c(CN(CC3COCCO3)C(=O)Nc3ccccc3F)cc2c1 (centres undefined),96,99,103,-20
CCOC(=O)C1CN(S(=O)(=O)c2ccccc2)CCN1S(=O)(=O)c1ccccc1 (centres undefined),120,103,105,-25
CC(=O)NCCOc1ccc(C)c(C)c1,99,90,.,4
CC1CCc2c(sc(NC(=O)COC(=O)Cn3cnc4c3c(=O)n(C)c(=O)n4C)c2C#N)C1 (centres undefined),95,93,.,6
O=S(=O)(CCc1ccncc1)c1ccccc1,81,90,.,-6
Cc1ccc(-c2nc3nc(C)cc(N4CCN(c5cccc(C)c5)C(C)C4)n3n2)cc1 (centres undefined),104,102,73*,10
CCOc1ccc(-c2cc(C(=O)Nc3ccc(NC(C)=O)cc3)no2)cc1,104,87,102,-20
Nc1ccc(O)c(C(=O)O)c1,80&98,73&95,91,-68&-26&-20&-20&-16&-46
O=C(C1=NNCC1c1ccccc1)c1ccccc1 (centres undefined),90,69,98,-90
O=C(Cn1c(=O)n(CCC(=O)NC2CCCC2)c(=O)c2ccccc21)NCc1ccco1,96,80,99,.
O=C(O)c1ccccc1N=Nc1c(O)[nH]c2ccccc12,59,89,.,-51
CCN(Cc1ccccc1)C(=O)CSc1nc2ccccc2s1,92,83,.,-6
Cn1nc(-c2ccccc2)cc1NC(=O)C1CCCCC1,121,89,104,-105
Cc1ccc(CNC(=O)C2CCN(S(C)(=O)=O)CC2)cc1,118,90,102,.
CCOC(=O)c1oc2ccccc2c1CSc1nc2cc(S(=O)(=O)N(C)C)ccc2o1,103,101,.,-11
COc1cc(C2C3=C(CC(c4ccc(OC)c(OC)c4)CC3=O)Nc3onc(C)c32)ccc1O (centres undefined),.,.,104,-20
CCN(CC)S(=O)(=O)c1ccc2c(c1)N(CC(=O)Nc1ccc(C)c(C)c1)C(=O)CCS2,.,.,99,0
Fc1ccc(N2CCN(c3nc4ccccc4c4nc(-c5ccccc5)nn34)CC2)cc1,100,87,105,-32

# Single records, as listed above. Order of values: Sa growth inh, Sa growth inh second temp, GIV-Gai inh, HCMV NEC inh
# Profile of `O=C(Nc1ccc(Br)cc1)c1ccc2nsnc2c1` → 100, 95, 99, .
# Profile of `CCOc1cccc2cc(S(=O)(=O)c3ccccc3F)c(=O)oc12` → 103, 89, 100, -24
# Profile of `Cc1cccc(CCNS(=O)(=O)c2cc3c(cc2C)NC(=O)CO3)c1` → 83, 88, 98, -4

# Continuation:
SMILES,Sa growth inh,Sa growth inh second temp,GIV-Gai inh,HCMV NEC inh
CCn1c(C)nnc1SCC(=O)NC1CCCCCC1,99,103,109,24
COCCN=c1scc(-c2cccs2)n1/N=C(\C)c1ccco1,104,92,.,-4
O=C(Cc1noc2ccccc12)NC1CCCCCC1,102,90,.,-26
Cc1ccc(C(=O)Nc2cnc3ccc(C)cn3c2=O)cc1,.,.,97,-94
Cc1ccc(CSCC(=O)NCc2ccc(F)cc2)cc1,127,88,97,.
CCOc1ccc(CCn2cnc3sc4c(c3c2=N)CCCC4)cc1OCC,86,92,109,-8
Cn1nc(C(=O)NCc2ccc(F)cc2)c2c1-c1ccccc1OC2,87,69,102,-21
C=CCn1c(SCC(=O)N2CCOCC2)nnc1-c1cc(Br)ccc1O,100,104,99,-1
Nc1nc(NC(=O)c2ccco2)nn1-c1ccccc1,95,79,.,-3
O=C(Nc1ccc(Br)cc1F)c1cc(-c2ccccn2)n[nH]1,.,.,102,-24
N#CC1=C(N)N(c2ccc(Cl)cc2)C2=C(C(=O)CCC2)C1c1cc(CN2CCOCC2)cs1 (centres undefined),113,86,99,-2
N#Cc1c(N2CCOCC2)nn2cc(C(=O)c3ccccc3O)cnc12,89,92,.,-55
COc1ccc(CCC(=O)NCc2nc3cccnc3n2Cc2ccc(C)cc2)cc1,99,78,110,.
CS(=O)(=O)CCC(C(=O)Nc1cccc(C(F)(F)F)c1)N1Cc2ccccc2C1=O (centres undefined),77,87,98,.
NC(Cn1cccn1)c1ccccc1 (centres undefined),108,96,102,9
O=C(COC(=O)CN1C(=O)CCOc2ccccc21)Nc1ccc(F)cc1,74,80,.,-14
CN(C)CCOC(=O)c1ccccc1O,88,82,.,-8
Cc1noc(C)c1C(=O)NCc1ccc2c(c1)OCO2,111,82,103,1
c1ccc(CCn2nnnc2CN2CCCc3ccccc32)cc1,93,93,102,0
Cc1nn(-c2ccccc2)nc1CNC(=O)COc1ccccc1,93,80,106,-27
COC(=O)C1(C(C)C)NC(c2ccccc2OC)C2C(=O)N(C)C(=O)C21 (centres undefined),97,85,102,-20
CCOc1ccccc1Nc1cc(-c2ccccc2)nc(C)n1,87,76,101,-36
O=C(O)CN1C(=O)/C(=c2\sc3nc4ccccc4n3c2=O)c2ccccc21,105,81,102,-36
Cc1ccc(CNS(=O)(=O)c2c(C(=O)N3CCC(C)CC3)c(C)n(C)c2C)cc1,80,90,101,.
Cn1c2c(c(=O)n(C)c1=O)C(CC(=O)O)C(=O)N2 (centres undefined),98,76,103,9
Cc1cs/c(=N\C(=S)Nc2ccccc2)n1C,106,102,96,.
Cc1ccc(NC(c2nnc(-c3ccccc3)o2)c2ccccc2F)c([N+](=O)[O-])c1 (centres undefined),82,94,108,.
O=C(COc1ccccc1)Nc1ccc2nc(SCC(=O)N3CCCC3)sc2c1,105,88,108,-22
O=C1CCCC2=C1C(c1ccccc1)N=C(Nc1nc3ccccc3s1)N2 (centres undefined),101,100,100,-3
O=C(NCCN1CCNC1=O)c1cnn(-c2ccc(Cl)cc2)c1C(F)(F)F,104,94,104,-15
O=C(O)CCn1c(=O)c2cc3c(=O)n(CCC(=O)O)c(=O)c3cc2c1=O,87,86,100,-40
Cc1ccc(OCCSc2nc3ccc(NC(=O)c4ccc5c(c4)OCO5)cc3s2)cc1,100,93,95,-6
Cc1ccc(C(=O)N2CCN(c3ncnc4c(C)csc34)CC2)cc1,92,94,103,11
O=C(O)/C=C/c1ccc2c(c1)OCCO2,65,92,.,-19
O=C(c1cnc2sc3c(n2c1=O)CCCCCC3)N1CCCC1,.,.,107,-21
CCOc1ccc(CC(=O)O)cc1,127,86,.,-34
O=C(Cn1c(=O)n(-c2ccccc2)c(=O)n1CC(=O)N1CCCCC1)N1CCCCC1,115,84,98,-3
COCCCNCc1ccc(-c2ccccc2Cl)o1,.,.,105,-20
COc1cccc(-c2nnn(CCc3nn[nH]n3)n2)c1,101,86,102,-21
COC(=O)c1nc2nc(C)cc(C)n2n1,114,85,104,-26
CC1CN(c2nc3ccccc3nc2SCC(=O)NCc2ccccc2Cl)CC(C)O1 (centres undefined),107,88,108,.
CN(C)S(=O)(=O)c1ccc2c(c1)C(=NNC(N)=O)c1cc(S(=O)(=O)N(C)C)ccc1-2,90,85,101,-25
